High-throughput results (PubChem BioAssay)
KAT2A inh – GCN5L2 (KAT2A) acetyltransferase inhibition; AID 504327; Q92830; GCN5L2 HAT assay, ThioGlo1 CoA-SH fluorescence; actives 0.21% (n = 390,000); Potency, µM (doses to about 58.9 µM), for the others: at the highest dose activity change, negative = inhibition, actives largely listed as inhibitors; active = well fitted inhibition curve with a large enough effect; inconclusive = small, poorly fitted or top-dose-only effect, or another doubt; inactive = no such curve, though single readings can be large or run the other way
Target sequence (Q92830 whole entry, looked up): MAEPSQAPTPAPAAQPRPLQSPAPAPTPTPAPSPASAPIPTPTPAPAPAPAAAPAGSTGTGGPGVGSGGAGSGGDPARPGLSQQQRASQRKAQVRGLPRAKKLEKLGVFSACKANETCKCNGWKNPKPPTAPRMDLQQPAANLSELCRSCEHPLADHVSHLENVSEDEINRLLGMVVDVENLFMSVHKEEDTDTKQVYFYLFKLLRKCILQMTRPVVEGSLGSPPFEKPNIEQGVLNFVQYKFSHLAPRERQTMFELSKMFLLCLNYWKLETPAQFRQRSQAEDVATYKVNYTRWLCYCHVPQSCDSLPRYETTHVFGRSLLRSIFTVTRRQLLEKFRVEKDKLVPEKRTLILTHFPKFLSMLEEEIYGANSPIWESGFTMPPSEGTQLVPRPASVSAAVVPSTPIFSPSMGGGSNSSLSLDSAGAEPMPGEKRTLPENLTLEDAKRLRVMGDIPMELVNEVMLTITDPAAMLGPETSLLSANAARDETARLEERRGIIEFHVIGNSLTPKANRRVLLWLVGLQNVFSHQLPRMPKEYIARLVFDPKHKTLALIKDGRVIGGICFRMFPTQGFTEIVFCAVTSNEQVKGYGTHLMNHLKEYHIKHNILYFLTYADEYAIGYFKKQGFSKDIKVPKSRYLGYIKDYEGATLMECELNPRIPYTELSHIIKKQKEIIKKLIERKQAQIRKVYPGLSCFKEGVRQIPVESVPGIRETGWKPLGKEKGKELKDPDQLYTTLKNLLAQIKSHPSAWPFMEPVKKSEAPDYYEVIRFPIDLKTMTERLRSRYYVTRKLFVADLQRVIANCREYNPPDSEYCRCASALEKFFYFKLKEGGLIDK
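Free CoA generated was detected with ThioGlo1 (50uM) fluorescence at Ex340nm/Em540nm, read immediately and after 20 min at room temperature. Enzyme, 20 nM in HEPES pH 7.5 buffer, saw compounds 15 min before adding 75uM H3(1-25) peptide and 70uM acetyl-CoA.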
An asterisk follows results filed as active; ? = inconclusive; [ ] = remark or other dose. % is set by controls: 0 for no effect and ±100 for the full control effect; potency is the fitted concentration of half-maximal effect. A portion of the library; most or all hits stand in other tables.

The first 6 compounds (preview)
SMILES | KAT2A inh
O=C(Cn1c(=O)oc2cc(S(=O)(=O)N3CCCC3)ccc21)Nc1ccc(F)cc1F | -19%
COc1cccc(NC(=O)Nc2ccc3c(c2)CCC3)c1 | -6%
CCn1c(SCC(=O)OC(C)C)nnc1-c1ccccc1OC | -2%
CCOC(=O)c1c(NC(=O)CSc2ncn[nH]2)sc(C(C)=O)c1C | -14%
COc1ccc(CC(=O)Nc2nnc(C(C)C)s2)cc1 | -8%
Cc1sc2c(c1C)CN(Cc1ccncc1)CN2C(=O)c1ccco1 | -5%

The listing (from the top)
SMILES | KAT2A inh
O=C(Cn1c(=O)oc2cc(S(=O)(=O)N3CCCC3)ccc21)Nc1ccc(F)cc1F | -19%
COc1cccc(NC(=O)Nc2ccc3c(c2)CCC3)c1 | -6%
CCn1c(SCC(=O)OC(C)C)nnc1-c1ccccc1OC | -2%
CCOC(=O)c1c(NC(=O)CSc2ncn[nH]2)sc(C(C)=O)c1C | -14%
COc1ccc(CC(=O)Nc2nnc(C(C)C)s2)cc1 | -8%
Cc1sc2c(c1C)CN(Cc1ccncc1)CN2C(=O)c1ccco1 | -5%
O=C(NC1CCCCC1)C(c1ccco1)N(C(=O)c1csnn1)c1cccc(Cl)c1 (centres undefined) | 2%
O=C(Cn1c(NCCCO)nc2ccccc21)c1ccc(Br)cc1 | -8%
O=C(NC(=S)N1CCN(C/C=C/c2ccccc2)CC1)c1c(F)cccc1F | 5%
O=C(NNC(=O)C1CCN(S(=O)(=O)c2ccc(Cl)cc2)CC1)c1ccc(S(=O)(=O)N2CCCCC2)cc1 | -1%
CC(=O)Nc1ccc(S(=O)(=O)N(C)CC(=O)Nc2nc3ccccc3[nH]2)cc1 | -17%
Cc1cc(C)nc(N/N=C/c2c(C)oc3ccccc23)n1 | -10%
O=C(NCc1nc(-c2ccccc2)cs1)c1ccccc1 | -13%
CCOC(=O)c1c(C)[nH]c(C(=O)CSc2nnc(CC(C)c3ccccc3)o2)c1C (centres undefined) | 0%
CCOc1ccc(/C=C2\SC(=S)N(NC(=O)c3ccncc3)C2=O)cc1OC | -5%
Cc1ccc(-n2c(C)c(C)c3c(N)ncnc32)cc1 | -1%
CCOC(=O)c1cc(-c2ccccc2)n(-c2cccc(C(=O)NC(C)CC)c2)c1C (centres undefined) | -9%
Cc1ccc(CC(=O)Nc2ccc(S(=O)(=O)N3CCOCC3)cc2)cc1C | -10%
Nc1ccc[n+](Cc2ccccn2)c1 | 2%
CCSc1nc(-c2ccc(Cl)cc2)nc2c1Cc1c(CO)cnc(C)c1O2 | -17%
CC(Sc1nnc(N)s1)C(=O)Nc1ccc(N2CCOCC2)cc1 (centres undefined) | -4%
S=C(NCC1CCCCC1)Nc1cccnc1 | 6%
O=C(c1ccc(OC2CCN(CCO)CC2)cc1)N1CCCC1 | -29%
Cc1c(C(=O)NCc2ccccc2CN2CCCC2)oc2ccccc12 | 2%
CN(C)CCCNCCCNC(=O)/C(=N\O)c1ccccc1 | -6%

In the list so far, these have an aryl methoxy group.
SMILES | KAT2A inh
COc1cccc(NC(=O)Nc2ccc3c(c2)CCC3)c1 | -6%
CCn1c(SCC(=O)OC(C)C)nnc1-c1ccccc1OC | -2%
COc1ccc(CC(=O)Nc2nnc(C(C)C)s2)cc1 | -8%
CCOc1ccc(/C=C2\SC(=S)N(NC(=O)c3ccncc3)C2=O)cc1OC | -5%

Next part:
SMILES | KAT2A inh
CCOC(=O)Cn1c(C)c(Br)c(=O)c2cccc(C)c21 | -3%
CCCc1ccc(OCc2ccc(C(=O)OC)o2)c(OC)c1 | -1%
C=CCn1nnc2sc3c(c2c1=O)CCC(C)C3 (centres undefined) | -2%[0.501 µM]
O=C(NCc1cccc(Cl)c1)c1ccc2ccccc2n1 | -1%
Cc1cc(Nc2ccccc2)n(CCO)n1 | -5%
CC(C)CNc1cc(N2CCCC2)ccc1[N+](=O)[O-] | -12%
COc1ccc2nc(NC(=O)C3=NN(c4ccccc4)C(=O)CC3)sc2c1 | -9%
COc1ccc(C(=O)NCC2CCCCC2)cc1S(=O)(=O)N1CCOCC1 | -6%
CC(C)(C)C(=O)NC(=S)NNC(=O)c1sc2ccccc2c1Cl | 17%
CCC(C)c1ccc(C(C)NC(=S)NCc2ccc(F)cc2)cc1 (centres undefined) | -7%
CO[C@]1(NC(=O)CSCC#N)C(=O)N2C(C(=O)O)=C(CSc3nnnn3C)CS[C@H]21 | -1%
COC(=O)CSC1=C(C#N)C(c2sccc2C)CC(=O)N1 (centres undefined) | -2%
COc1ccccc1NC(=O)N(Cc1cc2cc(OC)c(OC)cc2[nH]c1=O)CC1CCCO1 (centres undefined) | -13%
COC(=O)Cc1csc(Nc2ccc(Cl)cc2)n1 | -5%
CCCc1ccc(OCc2ccc(C(=O)O)o2)c(OC)c1 | 1%
CC(C)(C)NC(=O)Cn1nnc(-c2ccccc2Cl)n1 | -7%
O=C(Nc1ccnn1C1CCN(Cc2ccc(F)cc2)CC1)C1CC1 | -17%
CC(C)NC(=O)c1ccccc1NC(=O)Cc1ccc(Br)cc1 | -1%
CCOc1ccc(N2C(=O)CC(N3CCC(O)(c4ccc(Br)cc4)CC3)C2=O)cc1 (centres undefined) | -5%[0.501 µM]
COC(=O)c1ccc(/C=C(/NC(=O)c2ccccc2)C(=O)N2CCOCC2)cc1 | -10%
COc1cc(Cl)c(C)cc1NC(=O)CSc1ccc(C)cc1 | -5%
COc1ccc(CNC(=O)CS(=O)(=O)Cc2nc(-c3ccc(OC)cc3)oc2C)cc1 | -3%
O=Cc1[nH]c2ccccc2c1N(C(=O)CCl)c1ccc([N+](=O)[O-])cc1 | -2%
CCCCc1ccc(NC(=S)N2CCCC(C)C2)cc1 (centres undefined) | 2%
CCOc1cc(S(=O)(=O)N2CCN=C2Cc2ccccc2)ccc1F | 0%

The listing continues.
SMILES | KAT2A inh
CCn1cnc2scc(-c3ccccc3)c2c1=O | -1%
COc1ccc(C)cc1S(=O)(=O)NNc1nc(C)cc(C)n1 | -5%
Cc1cc(Cl)ccc1OCC(=O)Nc1cccc(S(=O)(=O)N2CCCC2)c1 | -5%
COc1ccc(N(CC(=O)Nc2cc(Cl)ccc2OC)S(=O)(=O)c2c(C)[nH]c(=O)[nH]c2=O)cc1 | -2%
Cc1cc(OCCCC(=O)NC2=NCCS2)ccc1Cl | 1%
O=C(NCc1ccccn1)c1cccc(S(=O)(=O)Nc2ccc(SC(F)F)cc2)c1 | 1%
CNC(=S)NNC(=O)c1sccc1OCc1ccc(C)cc1 | 11%
CCCCOc1ccc(C2/C(=C(\O)c3ccc4c(c3)OCCO4)C(=O)C(=O)N2CCCN2CCOCC2)cc1 (centres undefined) | -3%
COc1ccc(-n2c(SCc3nc(-c4ccc(C)cc4)no3)nnc2-c2ccccc2)cc1 | -6%
CC(C)[C@H](NC(=O)NC1CCCC1)C(=O)O | -4%
COc1ccc(S(=O)(=O)N(CC(=O)N2CCN(C)CC2)C2CCCCC2)cc1OC | -3%
CS(=O)(=O)N(Cc1ccccc1)c1ccc(C(=O)N2CCc3ccccc3C2)cc1 | -2%
COc1cccc(CNC(=O)C(=O)NCCC2CCCCN2S(=O)(=O)c2ccc(C)cc2)c1 (centres undefined) | -6%
COC(=O)c1ccc(Cl)c(NC(=O)Cc2ccccc2[N+](=O)[O-])c1 | 3%
Cc1ccc(OCc2nnc(SCC(N)=O)n2N)cc1 | -9%
O=C(NNC(=O)c1csc(N2CCOCC2)n1)c1ccc(=O)[nH]c1 | -13%
O=C1c2ccccc2NC(c2ccccc2)N1/N=C/c1ccccc1 (centres undefined) | -5%
C=CCn1c(N)cc(=O)nc1SC(C)C(=O)Nc1ccc(C(=O)OCC)cc1 (centres undefined) | ?
O=C(CSc1nccn1-c1ccccc1)NCc1ccc(F)cc1 | 3%
CCCN(CC(=O)Nc1ccccc1OC)C(=O)CCC(=O)c1ccc(Cl)s1 | 0%
CCN1CCN(CC(=O)N2N=C(c3cccs3)CC2c2ccc(OC)cc2)C(=O)C1=O (centres undefined) | -13%
Cc1cnc(C(=O)Nc2ccc(OC(F)(F)F)cc2)cn1 | -4%
Cc1ccc(/C=N/n2cnc3sc(-c4ccccc4)cc3c2=O)o1 | -1%
CC(NC(=O)c1ccco1)C(=O)OC(C)C(=O)NCc1ccccc1 (centres undefined) | -4%
C=CCSc1nc(NC)c2sccc2n1 | 15%

(continued)
SMILES | KAT2A inh
O=C(Nc1ncnc2c1ncn2C1OC(COC(=O)c2ccccc2)C(F)C1O)c1ccccc1 (centres undefined) | 0%
C=CCNC(=O)/C(C#N)=C/c1ccc(C(=O)O)cc1 | -16%
COc1ccc(CNC(=O)CC(C)c2ccccc2)cc1 (centres undefined) | -2%
O=C1c2ccccc2-c2c1cccc2C(=O)N1CCCCC1 | 2%
O=C(Nc1ccc2nc(-c3cccnc3)[nH]c2c1)C12CC3CC(CC(C3)C1)C2 | -1%
COc1ccc(OC)c(CNC(=O)c2cccc(NC(=O)N3CCSc4ncccc43)c2)c1 | -5%
COc1ccccc1CNC(=O)CN1N=C(c2ccccc2)CCC1=O | -23%
Cc1ccccc1C(=O)Nc1nncs1 | -6%
CC(OC(=O)/C=C/c1ccccc1)C(=O)Nc1ccc(C(N)=O)cc1 (centres undefined) | -4%
O=C(Nc1nnc(SCc2ccccc2Cl)s1)C1COc2ccccc2O1 (centres undefined) | -11%
CSc1ccccc1NC(=O)Cn1ccsc1=N | 2%
COc1cc(S(=O)(=O)NCC2CCCO2)c(OC)cc1Cl (centres undefined) | -3%
CCN(CC)CCCNC(=S)Nc1ccc(Br)cc1 | -3%
CCc1nc2nc(C)cc(Nc3cccc(C(F)(F)F)c3)n2n1 | 2%
Cn1c(=O)c2cnc(-c3ccc(C(F)(F)F)cc3)nc2n(C)c1=O | 0%
N#Cc1c(N)nc(SCc2ccccn2)c(C#N)c1-c1cccs1 | -8%
CCN(Cc1ccccc1)C(=O)C1CCN(C/C(C)=C/c2ccccc2)CC1 | 2%
Nc1n[nH]c(C2CCCCC2)n1 | 1%
O=C(Nc1cccc(S(=O)(=O)NC2=NCCC2)c1)c1cc(Cl)ccc1[N+](=O)[O-] | -3%
COc1ccccc1CCN1CCCC(CN(C)C(=O)c2ccco2)C1 (centres undefined) | -5%
O=C(CSc1nc2ccccc2s1)N/N=C/c1ccco1 | -6%
COc1ccccc1NC(=O)CSc1nnc2c3ccccc3n(C)c2n1 | -3%
CC(=O)c1c(C)[nH]c(C(=O)OCC(=O)c2c[nH]c3ccccc23)c1C | -1%
CC(C)CC(=O)Nc1ccccc1N1CCOCC1 | 1%
COc1ccc(NC(=O)CN2C(=O)C(C)Oc3ccccc32)cc1 (centres undefined) | 0%

Another view of some results above.
mol: COc1ccc(NC(=O)CN2C(=O)C(C)Oc3ccccc32)cc1 (centres undefined)
  KAT2A inh: 0%
mol: CCc1nc2nc(C)cc(Nc3cccc(C(F)(F)F)c3)n2n1
  KAT2A inh: 2%
mol: O=C(Nc1nnc(SCc2ccccc2Cl)s1)C1COc2ccccc2O1 (centres undefined)
  KAT2A inh: -11%
mol: N#Cc1c(N)nc(SCc2ccccn2)c(C#N)c1-c1cccs1
  KAT2A inh: -8%

Additional structures follow.
SMILES | KAT2A inh
CC(C)(CNC(=O)c1cccc(S(=O)(=O)Nc2ccc(Br)cc2)c1)N1CCOCC1 | 3%
O=C(Nc1cccc2oc(=O)ccc12)c1ccc([N+](=O)[O-])cc1[N+](=O)[O-] | -5%
CN(C(=O)Cn1c(=O)oc2cc(S(=O)(=O)N3CCCC3)ccc21)C1CCCCC1 | -4%
O=C(NCc1ccco1)/C(=C\c1cccs1)NC(=O)c1ccco1 | -1%
Cc1ccc(-c2csc(NC(=O)C3=NN(C4CCS(=O)(=O)C4)C(=O)CC3)n2)cc1 (centres undefined) | -4%
CN(CCOc1ccc(Cl)cc1)C(=O)c1ccccc1SCC(=O)N1CCCC1 | -3%
Cc1ccc2oc(Nc3nc(C)cc(C)n3)nc2c1 | 3%
COc1ccc(-c2cc(C(=O)NCc3cccnc3)no2)cc1 | -3%
C[C@H](CO)N1C[C@H](C)[C@@H](CN(C)S(C)(=O)=O)Oc2ccc(NC(=O)CCN3CCOCC3)cc2C1=O | 2%
N#C/C(=C\c1cccnc1)c1ccc(Br)cc1 | 1%
N#Cc1c(N)nc(SCC(=O)NC2CCCCC2)c(C#N)c1-c1ccc(Cl)cc1 | -2%
COc1ccc(CNC(=O)c2cc3cccc4c3n2CC(C)S4)cc1 (centres undefined) | -6%
CC1CCCCN1S(=O)(=O)c1ccc2c(c1)CCN2C(=O)CCC(=O)O (centres undefined) | -11%
O=C(NCC1CCN(S(=O)(=O)c2ccccc2)CC1)Nc1ccccc1 | -3%
O=C(O)CC12CC3CC(C1)CC(n1cncn1)(C3)C2 | -1%
O=C(CN1/C(=C(/O)c2ccccc2)C(=O)c2ccccc2S1(=O)=O)c1ccccc1 | 0%
COc1ccc(NC(=O)CC2C(=O)N(c3ccc(F)cc3)C(=S)N2NC(=O)c2ccccc2)cc1 (centres undefined) | -2%
O=C(Cn1c(-c2cccs2)cc2ccccc21)NCCc1ccc(Cl)cc1 | 0%
COc1ccc(Cc2nnc(-c3ccc(F)cc3)o2)cc1OC | -6%
CCNC(=O)C(=O)NCC1OCCCN1S(=O)(=O)c1cccs1 (centres undefined) | -1%
COc1cccc(NC(=O)CN(C)C(=O)c2cccc(S(=O)(=O)Nc3ccccc3OC)c2)c1 | -1%
COCCCNC(=S)NCCNc1nc2cc(C)c(C)cc2cc1C#N | 1%
O=C(CSc1nnc2c(Cl)cc(Cl)cn12)N1CCN(c2ccc(F)cc2)CC1 | -3%
O=C(COC(=O)CCc1ccccc1)NC(c1ccccc1)c1ccccc1 | -9%
O=C(COC(=O)c1ccccc1O)Nc1ccc2ccccc2c1 | 3%
